High-throughput results as filed in PubChem BioAssay.
RGS16-Gao: regulators of human RGS16-Galphao interaction | bead-based flow cytometry RGS16-Galphao binding, fluorescence; actives lie on both sides | AID 1441 | binding response (% of control), % at 10 µM | 0.38% of 220,000 active;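 active = below 25% or above 175%, edge rows of some plates excepted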;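 also: Galphao activated by GDP with aluminum fluoride before binding; 100% = wells without compound and 0% = beads without RGS; some results beyond the cut were filed as inactive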
Target sequence (O15492 whole entry, looked up): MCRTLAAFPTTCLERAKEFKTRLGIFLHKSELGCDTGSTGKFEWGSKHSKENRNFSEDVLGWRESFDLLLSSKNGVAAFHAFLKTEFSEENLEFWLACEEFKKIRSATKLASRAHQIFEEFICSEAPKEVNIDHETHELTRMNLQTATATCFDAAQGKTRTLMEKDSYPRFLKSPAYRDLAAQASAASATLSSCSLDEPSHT
Target sequence (P09471 whole entry, looked up): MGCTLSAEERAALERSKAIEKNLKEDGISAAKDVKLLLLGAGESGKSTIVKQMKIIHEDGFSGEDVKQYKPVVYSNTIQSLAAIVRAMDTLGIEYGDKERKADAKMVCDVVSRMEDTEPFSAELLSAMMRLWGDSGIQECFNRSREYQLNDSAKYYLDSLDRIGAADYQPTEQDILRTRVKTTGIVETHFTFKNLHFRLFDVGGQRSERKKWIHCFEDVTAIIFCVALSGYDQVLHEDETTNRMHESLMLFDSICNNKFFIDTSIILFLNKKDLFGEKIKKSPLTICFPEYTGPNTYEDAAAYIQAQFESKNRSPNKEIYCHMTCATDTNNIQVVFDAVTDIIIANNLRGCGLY
Insulin prom inh: TRM-6 insulin promoter activity inhibition; TRM-6 cells (human fetal islet line), insulin promoter-eGFP reporter, imaging; reporter expression induced with tamoxifen; inhibition, % at 2 µM; 0.9% of 130,000 active;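 active = inhibition above the mean plus 3 SD, with well images judged a real hit on visual review, cut at about 60% in these data, passing the limit was not always enough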
GALR2 agonist: agonists of human galanin receptor 2 (GALR2) | O43603 | GALR2-expressing cells, agonist activation read-out | activation, %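 (tested at 5 µM)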 | 0.48% of 140,000 active | AID 803;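 active = above mean plus 3 SD of all compounds, about 5% in these data, not always enough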;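 also: 0% = vehicle buffer wells and 100% = reference agonist at full effect; tested in CHO reporter cells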
Target sequence (O43603 whole entry, looked up): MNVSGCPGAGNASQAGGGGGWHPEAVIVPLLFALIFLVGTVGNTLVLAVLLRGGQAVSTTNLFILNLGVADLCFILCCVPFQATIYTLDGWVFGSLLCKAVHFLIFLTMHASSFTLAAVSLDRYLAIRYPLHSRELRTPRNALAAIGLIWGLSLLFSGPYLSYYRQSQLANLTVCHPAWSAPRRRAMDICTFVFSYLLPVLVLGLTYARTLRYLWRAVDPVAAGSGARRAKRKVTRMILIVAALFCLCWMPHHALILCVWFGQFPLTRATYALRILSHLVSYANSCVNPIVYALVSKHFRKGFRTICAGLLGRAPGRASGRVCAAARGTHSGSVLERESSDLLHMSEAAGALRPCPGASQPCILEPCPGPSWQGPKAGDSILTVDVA
PKD1 inh: blocks activity of human protein kinase D1; 0.056% of 200,000 active; AID 797; inhibition, %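 (about 10 µM by stock and volumes)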; PKD1 kinase fluorescence polarization assay; Q15139;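 active = inhibition of 50% or more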;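 also: controls were vehicle for no effect and a reference inhibitor for full effect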
HSV replic up: HSV replication enhancement; HSV replication augmentation in cells, fold increase; maximum fold increase; 0.005% of 220,000 active; AID 1956;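 active = peak rise of 1.5-fold or more in the series; tested in PC3 cells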;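 also: first round at 10 µM; read as green reporter fluorescence; hits show the peak of a series up to 25 µM; 1 = signal of infected wells without compound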
Insulin prom inh cell count: further read-out of Insulin prom inh, marked with its call; normalized cell count, %; measured here: cell count, toxicity; reference of the scale not given here;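 cells exposed to compound for 48 h; stained nuclei by imaging scaled within each plate; lower means fewer cells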
HSV replic up primary fold: further read-out of HSV replic up, marked with its call; fold increase; compound at 10 µM; measured here: primary screen fold increase 10 uM; tested in PC3 cells;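 GFP signal in the first replicate; 1 = infected wells without compound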
* = called active by the depositor.

Results for CCOc1cc2[nH]c(=S)n(CCc3ccc(OC)c(OC)c3)c(=O)c2cc1OCC ?
RGS16-Gao: 98; Insulin prom inh: 7; GALR2 agonist: -1.8; PKD1 inh: 1; HSV replic up: inactive; Insulin prom inh cell count: 121; HSV replic up primary fold: 0.55

Results for CCOC(=O)CSc1nnc(Cn2nnc(-c3ccccc3)n2)n1C ?
RGS16-Gao: 100; Insulin prom inh: -19; GALR2 agonist: -0.4; PKD1 inh: -5; HSV replic up: inactive; Insulin prom inh cell count: 118; HSV replic up primary fold: 0.85

How did COc1ccc(C(NC(=O)C2CCCCC2)c2c(O)ccc3ccccc23)cc1 (centres undefined) do in these assays?
RGS16-Gao: 106; Insulin prom inh: 12; GALR2 agonist: -1.8; PKD1 inh: -3; HSV replic up: inactive; Insulin prom inh cell count: 85; HSV replic up primary fold: 0.9

What do the screens show for `Nc1ccc2nc(-c3ccccn3)[nH]c2c1`?
RGS16-Gao: 101; Insulin prom inh: 38; GALR2 agonist: -2.6; PKD1 inh: -10; HSV replic up: inactive; Insulin prom inh cell count: 127; HSV replic up primary fold: 0.85

What do the screens show for `CC(=O)c1cc(-c2ccccc2)n(CC(=O)Nc2ccc(C)c(C)c2)c1C`?
RGS16-Gao: 93; Insulin prom inh: 37; GALR2 agonist: -1.2; PKD1 inh: -5; HSV replic up: inactive; Insulin prom inh cell count: 75; HSV replic up primary fold: 0.77

What do the screens show for `CC(C)NC[C@H](O)COc1cccc2[nH]ccc12`?
RGS16-Gao: 85; HSV replic up: inactive; HSV replic up primary fold: 0.93

Results for COc1cc2cc(CN(CCO)S(=O)(=O)c3ccccc3Cl)c(=O)[nH]c2cc1OC ?
RGS16-Gao: 104; Insulin prom inh: -11; GALR2 agonist: -0.3; PKD1 inh: -15; HSV replic up: inactive; Insulin prom inh cell count: 73; HSV replic up primary fold: 0.9

How did O=C(CCC1CCCN(C(=O)c2ccc3cc[nH]c3c2)C1)NCc1ccc(F)c(F)c1 (centres undefined) do in these assays?
RGS16-Gao: 96; PKD1 inh: 5; HSV replic up: inactive; HSV replic up primary fold: 0.94

What do the screens show for `Cc1onc(-c2ccccc2)c1C(=O)NC(=S)NNC(=O)c1cccnc1`?
RGS16-Gao: 106; Insulin prom inh: -8; GALR2 agonist: -0.5; PKD1 inh: 1; HSV replic up: inactive; Insulin prom inh cell count: 113; HSV replic up primary fold: 1

What do the screens show for `CCOC(=O)C1CCCCN1Cc1cc(OC)ccc1OC` (centres undefined)?
RGS16-Gao: 100; Insulin prom inh: -25; GALR2 agonist: -0.3; PKD1 inh: -12; HSV replic up: inactive; Insulin prom inh cell count: 122; HSV replic up primary fold: 1.1

Results for CCc1cccc2c(C(=O)COC(=O)c3cccc(S(=O)(=O)N(C)C4CCCCC4)c3)c[nH]c12 ?
RGS16-Gao: 103; Insulin prom inh: 55; GALR2 agonist: -0.4; PKD1 inh: -2; HSV replic up: inactive; Insulin prom inh cell count: 144; HSV replic up primary fold: 0.92

Results for CC(C)(C)c1ccc(COn2c(=O)c(-c3ccco3)[n+]([O-])c3ccccc32)cc1 ?
RGS16-Gao: 120; Insulin prom inh: -28; GALR2 agonist: 0.1; PKD1 inh: -1; HSV replic up: inactive; Insulin prom inh cell count: 125; HSV replic up primary fold: 1

How did COc1ccc(NC(=O)CSc2nc3[nH]ncc3c(=O)n2-c2ccccc2OC)cc1OC do in these assays?
RGS16-Gao: 104; Insulin prom inh: -17; GALR2 agonist: -0.3; PKD1 inh: -1; HSV replic up: inactive; Insulin prom inh cell count: 126; HSV replic up primary fold: 0.95

How did Oc1ccc(CN2CCCCC2)nc1-c1ccccc1 do in these assays?
RGS16-Gao: 93; Insulin prom inh: 18; GALR2 agonist: -3.0; PKD1 inh: -1; HSV replic up: inactive; Insulin prom inh cell count: 111; HSV replic up primary fold: 0.81

Results for CC1CCCN(S(=O)(=O)c2ccc(N(C(=O)c3cnccn3)C(C(=O)NC3CCCCC3)c3cccs3)cc2)C1 (centres undefined) ?
RGS16-Gao: 103; Insulin prom inh: -47; GALR2 agonist: 1.6; PKD1 inh: 5; HSV replic up: inactive; Insulin prom inh cell count: 157; HSV replic up primary fold: 0.98

What do the screens show for `COc1ccc(C(=O)C2CCCN(Cc3cnc(N4CCOCC4)s3)C2)cc1F` (centres undefined)?
RGS16-Gao: 101; HSV replic up: inactive; HSV replic up primary fold: 1.1

Results for COc1cc(/C=N/N=C(\N)c2nonc2N)cc(OC)c1O ?
RGS16-Gao: 96; HSV replic up: inactive; HSV replic up primary fold: 0.94

How did Cc1nnc(SCc2ccc(Cl)cc2)n1CC1CCCO1 (centres undefined) do in these assays?
RGS16-Gao: 103; Insulin prom inh: 36; GALR2 agonist: -1.6; PKD1 inh: -4; HSV replic up: inactive; Insulin prom inh cell count: 110; HSV replic up primary fold: 0.98

Results for COc1ccc(NC(=O)Nc2ccccc2)cc1S(=O)(=O)N1CCCCC1 ?
RGS16-Gao: 97; Insulin prom inh: 18; PKD1 inh: -3; HSV replic up: inactive; Insulin prom inh cell count: 81; HSV replic up primary fold: 0.98

Results for Cc1cc(C)c2sc(N)nc2c1 ?
RGS16-Gao: 106; Insulin prom inh: -31; PKD1 inh: -8; Insulin prom inh cell count: 83

What do the screens show for `COc1cc2c(cc1NCc1ccccn1)oc1ccccc12`?
RGS16-Gao: 100; Insulin prom inh: -8; GALR2 agonist: -1.9; PKD1 inh: 2; HSV replic up: inactive; Insulin prom inh cell count: 181; HSV replic up primary fold: 0.94

Results for CN(C)CCCNC(=O)CC(c1ccccc1)c1ccccc1O (centres undefined) ?
RGS16-Gao: 107; Insulin prom inh: -71; GALR2 agonist: -0.7; PKD1 inh: -11; HSV replic up: inactive; Insulin prom inh cell count: 141; HSV replic up primary fold: 0.9

How did CCN(CC)CCNCC(=O)Nc1ccc(Oc2ccccc2)cc1 do in these assays?
RGS16-Gao: 95; HSV replic up: inactive; HSV replic up primary fold: 0.94

Results for CCOC(=O)Nc1nnc(-c2ccc(OC)cc2)s1 ?
RGS16-Gao: 101; Insulin prom inh: -23; GALR2 agonist: 0.4; PKD1 inh: -4; HSV replic up: inactive; Insulin prom inh cell count: 182; HSV replic up primary fold: 0.99

How did CCC1=C(C(=O)OC)C(c2cc(OC)ccc2OC)C(C#N)=C(N)O1 (centres undefined) do in these assays?
RGS16-Gao: 107; Insulin prom inh: -12; GALR2 agonist: -1.4; PKD1 inh: -5; HSV replic up: inactive; Insulin prom inh cell count: 133; HSV replic up primary fold: 0.78

What do the screens show for `Cc1nn(-c2ccccn2)c2c1-c1nc(N)ncc1CC2`?
RGS16-Gao: 101; Insulin prom inh: 6; GALR2 agonist: -0.6; PKD1 inh: -1; HSV replic up: inactive; Insulin prom inh cell count: 115; HSV replic up primary fold: 0.95

Results for COc1ccc(-n2c(=S)[nH]c3c(oc4ccccc43)c2=O)cc1 ?
RGS16-Gao: 102; Insulin prom inh: 4; GALR2 agonist: -1.6; PKD1 inh: -2; HSV replic up: inactive; Insulin prom inh cell count: 82; HSV replic up primary fold: 1.1

How did O=C(Nc1cn(-c2ccccc2)nc1-c1cccs1)c1ccco1 do in these assays?
RGS16-Gao: 102; GALR2 agonist: -1.2; PKD1 inh: -5; HSV replic up: inactive; HSV replic up primary fold: 0.94

Results for O=C(Cc1ccccc1)NC1(Cc2ccc(O)cc2)CCCCC1 ?
RGS16-Gao: 100; Insulin prom inh: 53; PKD1 inh: 4; HSV replic up: inactive; Insulin prom inh cell count: 103; HSV replic up primary fold: 1

What do the screens show for `CSc1nc2c(cnn2-c2ccc(C)c(C)c2)c(=O)[nH]1`?
RGS16-Gao: 74; GALR2 agonist: -4.1; PKD1 inh: -9; HSV replic up: inactive; HSV replic up primary fold: 0.88

Part of the list above in order of heavy-atom count, low to high.
Results for CCOC(=O)Nc1nnc(-c2ccc(OC)cc2)s1 ?
RGS16-Gao: 101; Insulin prom inh: -23; GALR2 agonist: 0.4; PKD1 inh: -4; HSV replic up: inactive; Insulin prom inh cell count: 182; HSV replic up primary fold: 0.99

What do the screens show for `CSc1nc2c(cnn2-c2ccc(C)c(C)c2)c(=O)[nH]1`?
RGS16-Gao: 74; GALR2 agonist: -4.1; PKD1 inh: -9; HSV replic up: inactive; HSV replic up primary fold: 0.88

Results for COc1ccc(-n2c(=S)[nH]c3c(oc4ccccc43)c2=O)cc1 ?
RGS16-Gao: 102; Insulin prom inh: 4; GALR2 agonist: -1.6; PKD1 inh: -2; HSV replic up: inactive; Insulin prom inh cell count: 82; HSV replic up primary fold: 1.1

Results for O=C(Cc1ccccc1)NC1(Cc2ccc(O)cc2)CCCCC1 ?
RGS16-Gao: 100; Insulin prom inh: 53; PKD1 inh: 4; HSV replic up: inactive; Insulin prom inh cell count: 103; HSV replic up primary fold: 1

How did CCN(CC)CCNCC(=O)Nc1ccc(Oc2ccccc2)cc1 do in these assays?
RGS16-Gao: 95; HSV replic up: inactive; HSV replic up primary fold: 0.94

(next part)
What do the screens show for `c1ccc2c(c1)[nH]c1c(NCC3CCCO3)ncnc12` (centres undefined)?
RGS16-Gao: 90; GALR2 agonist: -0.3; PKD1 inh: 9; HSV replic up: inactive; HSV replic up primary fold: 0.97

Results for COC(=O)NCc1ccc(Cl)c(Cl)c1 ?
RGS16-Gao: 106; Insulin prom inh: 13; GALR2 agonist: -1.9; PKD1 inh: 0; HSV replic up: inactive; Insulin prom inh cell count: 99; HSV replic up primary fold: 0.86

What do the screens show for `O=C(COc1ccccc1F)NC1CCN(Cc2ccccc2)CC1`?
RGS16-Gao: 102; GALR2 agonist: -0.6; PKD1 inh: 3; HSV replic up: inactive; HSV replic up primary fold: 0.85

How did COc1ccc(NC(=O)c2ccccc2NS(C)(=O)=O)cc1OC do in these assays?
RGS16-Gao: 108; Insulin prom inh: -350; GALR2 agonist: -2.6; PKD1 inh: 0; HSV replic up: inactive; Insulin prom inh cell count: 90; HSV replic up primary fold: 0.94

How did CCC1c2ccc(C)n2CCN1C(=O)Nc1ccc(F)cc1 (centres undefined) do in these assays?
RGS16-Gao: 122; GALR2 agonist: -2.2; PKD1 inh: -14; HSV replic up: inactive; HSV replic up primary fold: 1.1

What do the screens show for `CCOC(=O)c1ccc(NC(=O)c2nc[nH]c2C(=O)NCCCCCNC(=O)OC(C)(C)C)cc1`?
RGS16-Gao: 103; HSV replic up: inactive; HSV replic up primary fold: 0.74

Results for CC1=NN(C(=O)CCc2ccccc2)C(c2ccccc2)C1 (centres undefined) ?
RGS16-Gao: 99; Insulin prom inh: 9; PKD1 inh: 5; HSV replic up: inactive; Insulin prom inh cell count: 93; HSV replic up primary fold: 1

Results for CCOC(=O)c1[nH]c2c(c1-c1ccccc1)C(=O)CC(c1ccc(OC)c(OC)c1)C2 (centres undefined) ?
RGS16-Gao: 108; Insulin prom inh: -2; GALR2 agonist: -0.9; PKD1 inh: -6; HSV replic up: inactive; Insulin prom inh cell count: 93; HSV replic up primary fold: 0.98

How did O=C(NC1CCCCCC1)C(=S)NCc1ccccc1 do in these assays?
RGS16-Gao: 91; PKD1 inh: 3; HSV replic up: inactive; HSV replic up primary fold: 0.88

How did CC(CNC(=O)C1CCCCC1)NC(=O)C1CCCCC1 (centres undefined) do in these assays?
RGS16-Gao: 69; GALR2 agonist: -0.9; PKD1 inh: -5; HSV replic up: inactive; HSV replic up primary fold: 0.95

Results for O=C(CCN1C(=O)C2C3C=CC(C3)C2C1=O)NCCc1ccccc1 (centres undefined) ?
RGS16-Gao: 99; Insulin prom inh: 31; GALR2 agonist: 0.1; PKD1 inh: -10; HSV replic up: inactive; Insulin prom inh cell count: 77; HSV replic up primary fold: 0.94

Results for O=C(COC(=O)CCN1C(=O)c2cccc([N+](=O)[O-])c2C1=O)NCc1ccccc1 ?
RGS16-Gao: 99; PKD1 inh: -2; HSV replic up: inactive; HSV replic up primary fold: 1

Hits appear at their usual frequency; any-hit rate near 1.3%.
